A1 apoptosis 2 = compounds inhibiting A1, read as caspase activation | MEF A1-2A-BIM cells, caspase-Glo luminescence, 3 h; percent of clofoctol response, DMSO zero | caspase activation, % (no concentration beside the values) | 24,000 tested, under 10 active | AID 2465; in the data active means caspase activation above about 5.9%;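 further: wells of about 30 µL received 50 nL stock; the first replicate is given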
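system = A1-2A-BIM-expressing MEF cells | quantity = 2500 MEF cells/well | dosing = 50 nL compound per well, pinned | schedule = overnight cell settling, then 3 h compound exposure, 37 °C | signal = luminescence from DEVD-luciferin Caspase-Glo reagent, 1:1 in 50 mM HEPES, 1 h RT | read-out = Caspase-3/7 activation, seen as rise in luminescence signal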
An asterisk follows results filed as active. Only part of the results is shown. The share of hits here may be higher or lower than overall.

compound | A1 apoptosis 2
C[C@H](CO)N1C[C@H](C)[C@H](CN(C)C(=O)Nc2ccc(F)cc2)Oc2ncc(-c3ccc(F)cc3)cc2C1=O | 0.5
C[C@@H]1CN([C@@H](C)CO)C(=O)c2cccc(N(C)C)c2O[C@H]1CN(C)C(=O)Nc1cccc2ccccc12 | -0.1
C[C@@H]1CN([C@H](C)CO)C(=O)Cc2cc(NS(=O)(=O)c3ccccc3)ccc2O[C@@H]1CN(C)C(=O)Nc1cccc2ccccc12 | -0.1
C[C@@H]1CN([C@H](C)CO)C(=O)c2cc(NC(=O)CCCCCC(=O)Nc3ccccc3N)ccc2O[C@@H]1CN(C)C(=O)Nc1ccc(F)cc1 | 0.8
C[C@H](CO)N1C[C@H](C)[C@H](CN(C)S(=O)(=O)c2cn(C)cn2)Oc2ncc(/C=C/c3ccccc3)cc2C1=O | -1.5
COc1ccc(C#Cc2ccc3c(c2)[C@]2(C(=O)N3)[C@H](C(=O)N3CCCCCCC3)[C@H]3C(=O)O[C@H](c4ccccc4)[C@H](c4ccccc4)N3[C@@H]2c2ccc(O)cc2)cc1 | -0.7
C[C@@H]1CN([C@@H](C)CO)C(=O)Cc2cc(NC(=O)Nc3ccccc3)ccc2O[C@@H]1CN(C)C | 0.8
COc1ccc(CN(C)C[C@@H]2Oc3ccc(NC(=O)Nc4c(C)noc4C)cc3C(=O)N([C@@H](C)CO)C[C@H]2C)cc1 | 0.1
CNC[C@@H]1OCCCC[C@H](C)Oc2ccc(NS(=O)(=O)c3ccc(Cl)cc3)cc2C(=O)N([C@H](C)CO)C[C@@H]1C | -1.4
O=C(CCCCCCC(=O)Nc1ccccc1O)N/N=C/c1cc(Br)cc(Br)c1O | -0.3
O=C(N/N=C/c1c[nH]c2ccccc12)c1ccccc1O | -4.8
C[C@H]1CN([C@@H](C)CO)C(=O)c2cccc(NC(=O)C3CCOCC3)c2O[C@H]1CN(C)Cc1ccncc1 | -0.5
C[C@H](CO)N1C[C@H](C)[C@H](CN(C)C(=O)NC2CCCCC2)Oc2ccc(NS(=O)(=O)c3cccs3)cc2C1=O | -0.6
C[C@@H]1CCCCO[C@@H](CN(C)C(=O)Nc2ccccc2)[C@@H](C)CN([C@H](C)CO)C(=O)c2cc(NS(C)(=O)=O)ccc2O1 | -0.1
COC(=O)C[C@H]1O[C@@]2(C[C@@H]1[Si](C)(C)C)C(=O)N(C)c1ccccc12 | 0.4
C[C@@H]1CN([C@@H](C)CO)C(=O)c2cc(NS(C)(=O)=O)ccc2O[C@@H](C)CCCCO[C@@H]1CN(C)C(=O)Nc1ccccc1 | 0.6
C[C@@H]1CCCCO[C@@H](CN(C)C(=O)Nc2ccc3c(c2)OCO3)[C@H](C)CN([C@H](C)CO)C(=O)c2cc(NC(=O)Nc3cccc4ccccc34)ccc2O1 | 1.2
C[C@@H]1CN([C@@H](C)CO)C(=O)c2cc(NC(=O)NC3CCCCC3)ccc2O[C@H]1CN(C)S(=O)(=O)c1ccccc1 | 0.2
C[C@@H]1CN([C@@H](C)CO)C(=O)c2cc(NC(=O)CCN3CCOCC3)ccc2O[C@@H]1CN(C)Cc1ccccc1 | 1.7
C[C@@H]1CN([C@@H](C)CO)C(=O)c2cc(NC(=O)c3ccncc3)ccc2O[C@@H](C)CCCCO[C@@H]1CN(C)C(=O)NC1CCCCC1 | -0.2
C[C@H](CO)N1C[C@H](C)[C@@H](CN(C)C(=O)Nc2cccc3ccccc23)Oc2ccc(NC(=O)CCC(F)(F)F)cc2CC1=O | 0.7
COc1ccc(S(=O)(=O)Nc2ccc3c(c2)C(=O)N([C@@H](C)CO)C[C@H](C)[C@@H](CN(C)C(=O)Nc2cccc4ccccc24)OCCCC[C@H](C)O3)cc1 | -0.7
C[C@@H]1CCCCO[C@H](CN(C)C(=O)Nc2ccc(C(F)(F)F)cc2)[C@H](C)CN([C@@H](C)CO)C(=O)c2cc(NS(=O)(=O)c3ccccc3)ccc2O1 | -0.5
COc1ccc(/C=N/NC(=O)c2ccccc2O)c(OC)c1 | -3.9
C[C@@H]1CN([C@@H](C)CO)C(=O)Cc2cc(NC(=O)Cn3cnnn3)ccc2O[C@@H]1CN(C)C(=O)Nc1cccc2ccccc12 | 0.2
O=C(NO)c1cccc(C(=O)N/N=C/c2ccc3c(c2)CCO3)c1 | -0.9
C[C@@H]1CN([C@@H](C)CO)C(=O)c2cc(NS(=O)(=O)c3ccc(Cl)cc3)ccc2O[C@H]1CN(C)C(=O)Nc1ccccc1 | -1.2
COc1ccc(CN(C)C[C@@H]2Oc3c(NS(C)(=O)=O)cccc3C(=O)N([C@@H](C)CO)C[C@@H]2C)cc1 | 2.1
CCCN(C)C[C@H]1OCc2cnnn2CCCC(=O)N([C@@H](C)CO)C[C@@H]1C | 1.6
C[C@@H]1CN([C@H](C)CO)C(=O)c2cc(NC(=O)Cc3ccccc3)ccc2O[C@@H](C)CCCCO[C@H]1CN(C)C | 0.0
Cc1ccc(S(=O)(=O)N(C)C[C@H]2OCCCC[C@@H](C)Oc3ccc(NC(=O)Nc4ccc5c(c4)OCO5)cc3C(=O)N([C@@H](C)CO)C[C@H]2C)cc1 | -0.6
NCCCCCCNC(=O)[C@H]1C[C@H]2C(=O)N[C@@H](Cc3ccccc3)C(=O)N2[C@H]1c1cccc(OCCO)c1 | 0.2
C[C@H](CO)N1C[C@H](C)[C@@H](CN(C)Cc2ccncc2)Oc2ccc(NC(=O)CCCN(C)C)cc2C1=O | 0.0
Cc1ccc(S(=O)(=O)Nc2cccc3c2O[C@H](CN(C)Cc2ccc(C(=O)Nc4ccccc4N)cc2)[C@@H](C)CN([C@H](C)CO)C3=O)cc1 | 1.5
Cc1noc(C)c1NC(=O)Nc1ccc2c(c1)CC(=O)N([C@H](C)CO)C[C@@H](C)[C@H](CN(C)C(=O)NC1CCCCC1)O2 | 0.5
C[C@H](CO)N1C[C@H](C)[C@H](CN(C)C)Oc2ccc(NC(=O)Nc3cccc4ccccc34)cc2CC1=O | -0.4
COc1ccc(S(=O)(=O)N(C)C[C@@H]2Oc3c(NC(=O)c4nc5ccccc5s4)cccc3C(=O)N([C@H](C)CO)C[C@H]2C)cc1 | -0.3
C[C@H]1CCCCO[C@@H](CN(C)C)[C@@H](C)CN([C@@H](C)CO)C(=O)c2cc(NS(=O)(=O)c3ccc(F)cc3)ccc2O1 | 0.3
C[C@@H]1CN([C@@H](C)CO)C(=O)c2cccc(NC(=O)CCCCCC(=O)Nc3ccccc3N)c2O[C@H]1CN(C)C(=O)Nc1ccc(C(F)(F)F)cc1 | 1.0
COc1ccc(S(=O)(=O)Nc2ccc3c(c2)CC(=O)N([C@H](C)CO)C[C@H](C)[C@@H](CN(C)S(=O)(=O)c2ccc(Cl)cc2)O3)cc1 | -0.9

The last 4 records of the section before come first, to join the parts:
compound | A1 apoptosis 2
COc1ccc(S(=O)(=O)N(C)C[C@@H]2Oc3c(NC(=O)c4nc5ccccc5s4)cccc3C(=O)N([C@H](C)CO)C[C@H]2C)cc1 | -0.3
C[C@H]1CCCCO[C@@H](CN(C)C)[C@@H](C)CN([C@@H](C)CO)C(=O)c2cc(NS(=O)(=O)c3ccc(F)cc3)ccc2O1 | 0.3
C[C@@H]1CN([C@@H](C)CO)C(=O)c2cccc(NC(=O)CCCCCC(=O)Nc3ccccc3N)c2O[C@H]1CN(C)C(=O)Nc1ccc(C(F)(F)F)cc1 | 1.0
COc1ccc(S(=O)(=O)Nc2ccc3c(c2)CC(=O)N([C@H](C)CO)C[C@H](C)[C@@H](CN(C)S(=O)(=O)c2ccc(Cl)cc2)O3)cc1 | -0.9
C[C@@H]1CN([C@@H](C)CO)C(=O)c2cccc(NC(=O)Nc3ccccc3)c2O[C@@H]1CN(C)Cc1ccc(Cl)c(Cl)c1 | -0.4
C[C@@H]1CCCCO[C@@H](CN(C)Cc2ccc(Cl)c(Cl)c2)[C@@H](C)CN([C@H](C)CO)C(=O)c2cc(NS(C)(=O)=O)ccc2O1 | -0.4
NC(=O)COc1ccccc1/C=N/NC(=O)c1ccccn1 | -1.8
Cc1ccc(S(=O)(=O)Nc2ccc3c(c2)C(=O)N([C@@H](C)CO)C[C@@H](C)[C@@H](CN(C)S(=O)(=O)c2ccccc2)O3)cc1 | 0.4
Cc1noc(C)c1NC(=O)N(C)C[C@H]1Oc2ccc(NC(=O)CCCN(C)C)cc2CC(=O)N([C@@H](C)CO)C[C@@H]1C | -0.7
CC(C)(C)[C@H]1C=C(C(=O)Nc2ccccc2)O[C@@H](OCc2ccc(CO)cc2)C1 | -0.3
C[C@H](CO)N1C[C@H](C)[C@H](CN(C)Cc2ccncc2)Oc2ccc(NC(=O)c3ccncc3)cc2CC1=O | -0.8
C[C@H](CO)N1C[C@H](C)[C@H](CN(C)C(=O)Nc2ccc(C(F)(F)F)cc2)Oc2ccc(NC(=O)Cn3cnnn3)cc2C1=O | -0.3
C[C@@H]1CN([C@H](C)CO)C(=O)c2cc(NC(=O)Cc3ccccc3)ccc2O[C@@H]1CN(C)C(=O)Nc1ccc(C(F)(F)F)cc1 | -0.9
C[C@@H]1CN([C@H](C)CO)C(=O)c2cc(NC(=O)c3ccncc3)ccc2O[C@@H]1CN(C)Cc1ccc(C(=O)Nc2ccccc2N)cc1 | 1.7
OCc1ccc(COc2ccc3ccncc3c2)cc1 | -2.0
C[C@H]1CN([C@@H](C)CO)C(=O)Cc2cc(NC(=O)Nc3ccc(F)cc3)ccc2O[C@H]1CN(C)S(=O)(=O)c1cccs1 | -0.6
C[C@@H]1CCCCO[C@@H](CN(C)C(=O)c2ccccc2)[C@@H](C)CN([C@@H](C)CO)C(=O)c2cc(NC(=O)Nc3ccc4c(c3)OCO4)ccc2O1 | 0.0
COC(=O)CCCCCCC(=O)N/N=C/c1ccc(OC)c(O)c1 | -0.5
C[C@@H]1CCCCO[C@H](CN(C)C(=O)c2ccccc2)[C@H](C)CN([C@@H](C)CO)C(=O)c2cc(NS(=O)(=O)c3ccc(Cl)cc3)ccc2O1 | 0.2
C[C@H]1CN([C@@H](C)CO)C(=O)c2cc(NS(C)(=O)=O)ccc2O[C@H]1CN(C)C(=O)Nc1ccc2c(c1)OCO2 | 0.3
C[C@H]1CN([C@@H](C)CO)C(=O)c2cc(NC(=O)c3ccncc3)ccc2O[C@@H]1CN(C)C(=O)NC1CCCCC1 | 0.4
C[C@@H]1CN([C@H](C)CO)C(=O)Cc2cc(NS(=O)(=O)c3ccccc3)ccc2O[C@@H]1CN(C)S(C)(=O)=O | -0.4
C[C@H](CO)N1C[C@H](C)[C@@H](CN(C)CC2CC2)OCCCC[C@H](C)Oc2ccc(NC(=O)Nc3ccc4c(c3)OCO4)cc2C1=O | -1.0
Cc1noc(C)c1S(=O)(=O)N(C)C[C@@H]1Oc2ccc(NC(=O)C3CCCCC3)cc2CC(=O)N([C@@H](C)CO)C[C@H]1C | -0.4

Nothing new here: entries from further up.
compound | A1 apoptosis 2
C[C@@H]1CN([C@@H](C)CO)C(=O)c2cccc(NC(=O)Nc3ccccc3)c2O[C@@H]1CN(C)Cc1ccc(Cl)c(Cl)c1 | -0.4
C[C@@H]1CCCCO[C@@H](CN(C)Cc2ccc(Cl)c(Cl)c2)[C@@H](C)CN([C@H](C)CO)C(=O)c2cc(NS(C)(=O)=O)ccc2O1 | -0.4

Following part.
compound | A1 apoptosis 2
C[C@@H]1CCCCO[C@H](CN(C)Cc2ccc(C(F)(F)F)cc2)[C@H](C)CN([C@H](C)CO)C(=O)c2cc(NS(C)(=O)=O)ccc2O1 | -0.5
C[C@@H]1CN([C@H](C)CO)C(=O)c2cc(NC(=O)CCC(F)(F)F)ccc2O[C@@H](C)CCCCO[C@H]1CN(C)C(=O)Nc1ccc(F)cc1 | 0.4
C[C@H](CO)N1C[C@H](C)[C@H](CN(C)Cc2ccncc2)Oc2c(NC(=O)c3ccc(-c4nccs4)cc3)cccc2C1=O | 0.7
COc1ccc(S(=O)(=O)N(C)C[C@@H]2OCc3cnnn3CCCC(=O)N([C@@H](C)CO)C[C@H]2C)cc1 | 0.0
C[C@H](CO)N1C[C@H](C)[C@@H](CN(C)S(C)(=O)=O)Oc2ccc(NS(C)(=O)=O)cc2CC1=O | -1.0
CNC[C@H]1OCCCC[C@H](C)Oc2ccc(NC(=O)Nc3ccccc3)cc2C(=O)N([C@H](C)CO)C[C@@H]1C | 0.9
C[C@@H]1CN([C@H](C)CO)C(=O)c2cccc(NC(=O)NC3CCCCC3)c2O[C@@H]1CN(C)Cc1ccc(Cl)c(Cl)c1 | -1.2
C[C@H]1CN([C@@H](C)CO)C(=O)CCCn2cc(nn2)CO[C@H]1CN(C)C(=O)Cc1ccccc1 | 0.3
C[C@@H]1CN([C@H](C)CO)C(=O)c2cc(NC(=O)Cn3cnnn3)ccc2O[C@H]1CN(C)C(=O)Nc1ccc(C(F)(F)F)cc1 | -0.4
C[C@@H]1CCCCO[C@@H](CN(C)S(=O)(=O)c2cccs2)[C@H](C)CN([C@@H](C)CO)C(=O)c2cc(NS(=O)(=O)c3ccc(Cl)cc3)ccc2O1 | -1.0
C[C@H](CO)N1C[C@H](C)[C@@H](CN(C)S(=O)(=O)c2ccc(Cl)cc2)Oc2ccc(NC(=O)Nc3cccc4ccccc34)cc2CC1=O | -0.4
C[C@@H]1CN([C@H](C)CO)C(=O)c2cc(NC(=O)Nc3ccc4c(c3)OCO4)ccc2O[C@@H](C)CCCCO[C@@H]1CN(C)S(=O)(=O)c1cccs1 | 2.0
Cc1noc(C)c1NC(=O)Nc1cccc2c1O[C@H](CN(C)S(C)(=O)=O)[C@@H](C)CN([C@H](C)CO)C2=O | -0.2
C[C@@H]1CN([C@H](C)CO)C(=O)Cc2cc(NC(=O)c3ccncc3)ccc2O[C@@H]1CN(C)C(=O)Nc1ccccc1 | -0.3

Screening results (PubChem)
